# KCNQ2 pot: enhances the rat KCNQ2 potassium channel | O88943 | CHO-K1 KCNQ2, FluxOR thallium flux fluorescence; hits give high values | B-score at 10 µM | hit rate 0.54% among 310,000;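 active = fluorescence ratio B-score at least 3 SD of library B-scores, with initial fluorescence B-score within 3 SD, cut at about 5.3 in these data; same plate scores as AID 2156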;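 note: B-score of peak minus minimum over baseline fluorescence ratio after K+ and Tl+ stimulus; positive B-score means potentiation of KCNQ2 with more thallium influx and brighter signal; only the inactives scoring about 0 or higher are listed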
# Target sequence (O88943 whole entry, looked up): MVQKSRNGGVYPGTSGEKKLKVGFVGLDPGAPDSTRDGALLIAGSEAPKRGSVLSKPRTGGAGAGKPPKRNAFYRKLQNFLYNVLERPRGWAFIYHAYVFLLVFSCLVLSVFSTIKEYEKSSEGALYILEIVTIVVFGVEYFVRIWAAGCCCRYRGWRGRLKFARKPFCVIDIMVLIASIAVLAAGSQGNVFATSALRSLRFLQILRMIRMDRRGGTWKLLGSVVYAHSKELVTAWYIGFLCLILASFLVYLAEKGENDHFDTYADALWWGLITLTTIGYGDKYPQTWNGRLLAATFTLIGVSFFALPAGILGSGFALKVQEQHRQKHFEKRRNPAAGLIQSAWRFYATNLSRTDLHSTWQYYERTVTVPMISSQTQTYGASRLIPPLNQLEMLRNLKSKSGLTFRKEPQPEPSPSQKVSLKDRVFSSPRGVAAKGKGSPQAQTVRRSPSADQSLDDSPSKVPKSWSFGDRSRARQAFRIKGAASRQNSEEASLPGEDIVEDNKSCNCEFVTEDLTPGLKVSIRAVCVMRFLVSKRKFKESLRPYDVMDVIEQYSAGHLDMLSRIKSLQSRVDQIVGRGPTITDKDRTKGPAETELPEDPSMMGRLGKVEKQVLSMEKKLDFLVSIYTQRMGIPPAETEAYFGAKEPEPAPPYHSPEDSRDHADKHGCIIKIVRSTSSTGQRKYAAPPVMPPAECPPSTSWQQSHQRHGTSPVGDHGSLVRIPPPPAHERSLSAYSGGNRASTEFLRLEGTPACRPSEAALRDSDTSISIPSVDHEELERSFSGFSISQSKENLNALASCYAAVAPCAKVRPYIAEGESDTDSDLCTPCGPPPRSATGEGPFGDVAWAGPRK
# KCNQ2 pot baseline: further read-out of KCNQ2 pot, marked with its call; B-score; compound at 10 µM; measured here: initial fluorescence intensity artifact check;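 brightness before thallium and not channel activity; 0 = typical well and far values either way flag optical interference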
# An asterisk follows results filed as active.
compound,KCNQ2 pot,KCNQ2 pot baseline
COc1ccc(C(=O)N2CCN(c3ccccc3)CC2)cc1S(=O)(=O)N1CCOCC1,0.81,0.09
Cn1nc(C(C)(C)C)c(NC(=O)c2ccc(F)cc2)c1C(C)(C)C,0.79,1.7
CCC(C)c1ccc(NC(=S)NCc2ccccn2)cc1 (stereo not drawn),0.05,-0.8
CC(C)Oc1ccc(C(=O)NNC(=O)c2ccccc2C(=O)O)cc1,1.5,-0.99
CC(C)NC[C@H](O)COc1cccc2ccccc12,0.19,0.99
Cc1ccc(CNC(=O)c2ccc(CS(=O)Cc3cccc(Cl)c3)o2)cc1 (stereo not drawn),0.54,0.68
COc1ccc(NC(=O)NC2CCCCCCC2)cc1OC,0.02,0.19
COc1ccc2[nH]c3c(NCCN4CCCCC4)ncnc3c2c1,2.3,-2.4

# Structural class, those above containing a halogen.
compound,KCNQ2 pot,KCNQ2 pot baseline
Cn1nc(C(C)(C)C)c(NC(=O)c2ccc(F)cc2)c1C(C)(C)C,0.79,1.7
Cc1ccc(CNC(=O)c2ccc(CS(=O)Cc3cccc(Cl)c3)o2)cc1 (stereo not drawn),0.54,0.68

# Other structures
compound,KCNQ2 pot,KCNQ2 pot baseline
O=C(Nc1ccccn1)c1ccc(C(=O)c2ccccc2)cc1,0.22,0.23
CCOC(=O)N1CCN(CC(=O)Nc2ccc([N+](=O)[O-])cc2C(=O)Nc2ccccc2F)CC1,0.14,-0.04
COCCCn1c(SCC(=O)NC2CCCC2)nnc1-c1cccs1,1.6,-1.2
Oc1c(Cl)cc(Cl)cc1C=Nc1ccc(Br)cc1,7.1*,3.4*
CC12CCC(C(=O)NCCN3CCCCC3)(CC1=O)C2(C)C (stereo not drawn),0.39,-0.14
COc1ccccc1N1CCN(C(=O)CN(c2cc(C)cc(C)c2)S(C)(=O)=O)CC1,0.09,1.9
Cn1c(SCC(=O)N2CCN(S(=O)(=O)c3ccccc3)CC2)nc2ccccc21,0.9,1.2
CCOc1ccc(C(=O)N2CCC3(CC2)NCCc2[nH]cnc23)cc1OCC,0.45,-0.04

# Additional compounds.
compound,KCNQ2 pot,KCNQ2 pot baseline
O=C(CCCCCN1C(=O)CCC1=O)Nc1ncn[nH]1,0.87,-0.56
Cc1cccn2c(=O)c(C=Nc3ccccc3)c(NCCO)nc12,0.78,-0.61
CCOC(=O)C1CCCN(C(=O)/C(=C/c2ccco2)NC(=O)c2ccccc2)C1 (stereo not drawn),0.28,1.6
COc1ccc(C(=O)CSc2ccc(-c3ccco3)nn2)cc1,1.1,1.4
CCCc1c(O)nc(SCC(=O)N2CCCCC2)[nH]c1=O,1,-0.23
CC(CN1CCN(Cc2ccccc2)CC1)OC(=O)c1ccco1 (stereo not drawn),0.7,-0.29
Cc1ccc(-c2nc3ccccc3[nH]c2=O)cc1,0.12,-0.04
Cc1cc(N)n(-c2ccc(C)c(C)c2)n1,0.43,-1.1

# Additional entries
compound,KCNQ2 pot,KCNQ2 pot baseline
CC1(C)CC(=O)C(C=NCCN2CCN(C(=O)CCl)CC2)=C(O)C1,1.1,-3
Cc1ccc2cccc(OCCOCCOc3ccccc3Br)c2n1,0.17,-0.87
Cc1cc(C(=O)N/N=C/c2ccc3c(c2)OCO3)c(C)o1,1.4,-1.1
COc1ccc(C(=O)/C=C/c2cccnc2)c(OC)c1,0.54,-0.04
CC(C)N(Cc1ccccc1)C(=S)Nc1ccc(OC(F)F)cc1,0.73,-1.3
O=C(CN1C(=O)c2ccccc2C1=O)NC1CCCCCC1,1.6,-0.04
COc1ccccc1CC(NC(C)=O)C(=O)NC1CCN(c2nnnn2-c2ccccc2)CC1 (stereo not drawn),0.73,1.2
Cc1ccc(O)c(C2=NOC(O)(C(F)(F)C(F)F)C2)c1 (stereo not drawn),0.44,-1.1

# New compounds follow.
compound,KCNQ2 pot,KCNQ2 pot baseline
OCCOc1nnnn1-c1ccccc1,0.03,2.3
Cc1ccc(C(=O)COC(=O)CCC(=O)Nc2ccccc2Cl)cc1[N+](=O)[O-],1.5,0.06
COc1ccc(NC(=O)CN(C)C(=O)CNC(=O)c2ccc(C)s2)cc1,0.89,-0.8
COc1ccc(-c2nc3ccc(C)cc3c(=O)o2)cc1OC,0.07,0.47
COc1ccccc1-c1cc(C(=O)NCc2cccs2)no1,0.94,-1.6
CC1=CC(=C(C#N)C#N)C=C(C)N1CCC(C)C,0.54,4
CCOC(=O)c1cnc(SCC(=O)Nc2sc(C)c(C)c2C#N)nc1N,0.3,-1.3
O=C(O)C1CCN(S(=O)(=O)Cc2ccccc2)CC1,1.9,2.8

# (cont.)
compound,KCNQ2 pot,KCNQ2 pot baseline
NC(=O)COC(=O)c1ccc2c(c1)S(=O)(=O)N=C1CCCCCN12,0.59,1.4
CC(OC(=O)c1nn(C)c(=O)c2ccccc12)C(=O)Nc1ccc(S(N)(=O)=O)cc1 (stereo not drawn),1.8,1.7
CN1CCN(c2ccc([N+](=O)[O-])cc2C(=O)Nc2ccccc2)CC1,0.92,-1.2
Cc1cc(C)c(C(=O)N2CCCC(CNC(=O)C3(c4ccc(Cl)cc4)CC3)C2)c(=O)[nH]1 (stereo not drawn),0.32,-1.4
CCN(CC)CCN(CC(=O)Nc1c(C)cc(C)cc1C)C(=O)c1ccccc1,3,1.5
Cc1oc2cc3oc(=O)c(CCC(=O)N4C[C@H]5C[C@@H](C4)c4cccc(=O)n4C5)c(C)c3cc2c1C,0.08,1.7
O=C(CCN1C(=O)/C(=C/c2ccc(Cl)cc2)SC1=S)Nc1ccc(C(=O)O)cc1,0.07,-1.1
COc1ccccc1CCN1CCCC(CN(C)C(=O)c2ccco2)C1 (stereo not drawn),0.72,-0.49

# (list continues)
compound,KCNQ2 pot,KCNQ2 pot baseline
COc1ccc(C(C)(C)C)cc1NC(=O)c1cccc(S(=O)(=O)N2CCN(C(C)=O)CC2)c1,2.5,0.49
O=C1NC(c2cc(Cl)cc([N+](=O)[O-])c2O)Nc2ccccc21 (stereo not drawn),1.3,-0.57
O=C(CSc1ccc(-c2ccccc2)nn1)N1CCCCC1,0.64,-0.87
COCCNC(=O)c1c[nH]c2ccc(OC)cc2c1=O,2.2,0.12
Cc1ccc(-n2ncc3c2CC(C)(C)CC3NC(=O)CCN2CCCO2)cc1 (stereo not drawn),0.01,1.3
CC(C)CNC(=O)NC(=O)COC(=O)Cn1cnc2ccccc2c1=O,0.02,0.32
COc1ccc(CCNC(=O)C2CCN(S(=O)(=O)c3cccc4nsnc34)CC2)cc1OC,0.05,-0.82
NS(=O)(=O)c1ccc(CNC(=O)c2cccc(Oc3ccccc3)c2)cc1,0.47,-2.4

# Next compounds
compound,KCNQ2 pot,KCNQ2 pot baseline
CCC1CC2CC(NC(C)=O)C1C2 (stereo not drawn),1.5,-1
Cc1nn(Cc2ccc(F)cc2)c(C)c1NC(=O)CCCn1nc([N+](=O)[O-])cc1C,0.19,0.39
Cc1cc(N)n(-c2ccc(S(N)(=O)=O)cc2[N+](=O)[O-])n1,0.69,-1.5
CC(C)c1ccc(NC(=O)CSc2nnc(-c3ccccn3)n2C)cc1,1.7,1.1
COc1ccc(/C=C2\CCC(C3CCCC3)C2=O)cc1Cn1cccn1 (stereo not drawn),0.12,0.09
COc1ccccc1NS(=O)(=O)c1cccc(NC(=O)c2ccc3ccccc3n2)c1,0.61,-1.9
COC(=O)c1ccc(S(=O)(=O)N2CCCCC2)o1,1.7,1.7
COc1ccc(-c2nc(-c3ccccn3)ncc2S(C)(=O)=O)cc1,1.5,0.08

# Part of the list above in order of formula weight, rising.
compound,KCNQ2 pot,KCNQ2 pot baseline
COC(=O)c1ccc(S(=O)(=O)N2CCCCC2)o1,1.7,1.7
Cc1cc(N)n(-c2ccc(S(N)(=O)=O)cc2[N+](=O)[O-])n1,0.69,-1.5
COc1ccc(-c2nc(-c3ccccn3)ncc2S(C)(=O)=O)cc1,1.5,0.08
COc1ccccc1NS(=O)(=O)c1cccc(NC(=O)c2ccc3ccccc3n2)c1,0.61,-1.9

# The list goes on.
compound,KCNQ2 pot,KCNQ2 pot baseline
CC(C)COc1ccc(S(=O)(=O)n2cc(F)c(=O)[nH]c2=O)cc1,0.24,1.7
O=c1cc(C(F)(F)F)nc(-c2ccccc2)[nH]1,0.83,0.34
Cc1cc(=O)oc2cc(OCC(=O)OCC(=O)N(CCC#N)c3ccccc3)ccc12,0.61,-0.23
Cc1ccc(CN(c2ccc(C(=O)N3CCOCC3)cc2)S(C)(=O)=O)cc1,0.21,-1.2
CC(C)[C@H](NC(=O)[C@H](CC(=O)O)NC(=O)[C@H](CCCCN)NC(=O)[C@@H](N)CCCN=C(N)N)C(=O)N[C@@H](Cc1ccc(O)cc1)C(=O)O,0.94,0.4
COc1ccc(-c2nn(-c3ccccc3)cc2C(=O)N(C)C)cc1,0.39,-3.3
COc1ccc2nc(Cl)c(C3CC(c4ccco4)=NN3C(=O)CCCC(=O)O)cc2c1 (stereo not drawn),1.5,0.72
O=c1[nH]c(C(F)(F)F)nc2ccc3ccccc3c12,1.6,-0.88

# More entries:
compound,KCNQ2 pot,KCNQ2 pot baseline
Cc1cc(C)c(S(=O)(=O)N/N=C/c2ccc([N+](=O)[O-])o2)c(C)c1,0.68,-1.3
COc1ccc2oc(C(=O)NC(C)(C)C)c(C)c2c1,2,-0.86
O=C1CN(O)C=C2N=c3ccccc3=C2N1c1ccc([N+](=O)[O-])cc1,0.99,1
COc1ccc(C(=O)NCC(=O)N2CCCCC2)cc1OC,0.64,-2.2
CCN1CCN(c2ncnc3c2sc(=S)n3-c2ccccc2)CC1,0.74,0.74
COc1cccc(-c2ccc(NC(=O)C3CCCN(Cc4cnc(C)s4)C3)cc2)c1 (stereo not drawn),0.1,0.03
CC1CCN(CC(=O)Nc2nccs2)CC1,0.62,-0.29
O=C(NC1CCCCCCC1)C1CCCN(S(=O)(=O)c2cnc[nH]2)C1 (stereo not drawn),0.67,-0.52

# The list goes on.
compound,KCNQ2 pot,KCNQ2 pot baseline
CC(C)C(=O)N1CCN(c2ccccc2NC(=O)c2ccco2)CC1,0.02,-0.48
Cc1cc(C)nc(SCC(=O)N/N=C/c2cc(C)n(-c3ccccc3C)c2C)n1,1.4,-0.75
CN(CC(=O)NCC(c1ccco1)N1CCCCC1)S(=O)(=O)c1ccc(Cl)cc1 (stereo not drawn),0.03,-1.1
CCCNC(=O)c1cnc(-c2ccccc2)nc1-c1ccccc1,0.08,-2.3
O=C(c1cc(S(=O)(=O)N2CCOCC2)ccc1Cl)N1CCC(Cc2ccccc2)CC1,1.9,-0.29
CCOC(=O)[C@@H]1[C@H]2COc3cc(OC)ccc3[C@@H]2N2C(=O)N(c3cccc(F)c3)C(=O)[C@@]12C,0.86,1.6
COc1ccc(S(=O)(=O)N2CCOC2CNC(=O)C(=O)NCc2ccccn2)cc1 (stereo not drawn),1.1,-0.84
O=C(O)CC(CC(=O)NCC(O)c1ccccc1)c1ccccc1 (stereo not drawn),0.35,1.2

# The listing continues:
compound,KCNQ2 pot,KCNQ2 pot baseline
CC(C)CC1NC(=O)N(CC(=O)N2c3ccccc3NC(=O)C2(C)C)C1=O (stereo not drawn),0.12,0.79
COc1ccc(NS(=O)(=O)c2ccc3oc(Nc4ccc5c(c4)OCCO5)nc3c2)cc1,1.8,0.17
CC(C)(C)NC(=O)NC(=O)CSc1nnc(-c2ccccc2F)n1N,1.6,0.95
Cc1cc(C(=O)COC(=O)c2ccccc2Br)c(C)n1CC1CCCO1 (stereo not drawn),0.91,0.14
Nc1cc(=O)[nH]c2nnc(SCC(=O)Nc3cccc4ccccc34)n12,0.87,0.52
COCCCNC(=O)CCN1N=C(c2ccccc2)CCC1=O,0.33,-0.55
Cc1cccc(C(=O)Nc2ccccc2C(=O)NCc2cccnc2)c1,1.6,-1.2
CCO[C@H]1OC(C(=O)N2CCN(C)CC2)=C[C@@H](c2ccc(Br)cc2)[C@@H]1CCCO,0.03,-0.09

# Continuation:
compound,KCNQ2 pot,KCNQ2 pot baseline
COc1ccc(C(=O)N2CCC(C(=O)Nc3cccc(C)c3)CC2)cc1OC,0.2,-0.65
Cc1cc(C)nc(SCCC(=O)Nc2ccccc2Cl)n1,0.52,0.31
CC(=O)c1c(C)[nH]c(C(=O)OCC(=O)N(C)c2c(N)n(Cc3ccccc3)c(=O)[nH]c2=O)c1C,2.4,-0.77
COc1cc(C(=O)Nc2nc3ccc(C)cc3s2)ccc1OCc1c(C)noc1C,0.03,-0.02
COc1ccc(CNC(=O)CS(=O)(=O)Cc2nc(-c3ccc(OC)cc3)oc2C)cc1,0.83,-1.9
COC(=O)C1CCN(C(=O)C2CCCCC2)CC1,0.29,-0.28
O=C(CCC(=O)N(CC(=O)NC1CCCCC1)c1ccc(F)cc1)Nc1ccccn1,1.1,3
Cc1cc(=O)[nH]c(SCC(=O)N2CCCC(C)C2)n1 (stereo not drawn),0.7,0.01

# More entries follow.
compound,KCNQ2 pot,KCNQ2 pot baseline
CSc1cc(-c2ccc(Cl)cc2)n(Cc2ccccc2)c(=O)c1C#N,0.21,-0.19
CC(=O)Nc1ccc(Nc2cc(C)nc3c(-c4ccc(Cl)cc4)c(C)nn23)cc1,0.03,-1.2
COCCc1nc2ccc(C(=O)N3CCCCC3COC)cc2o1 (stereo not drawn),2.5,1.4
COc1ccc(C(=O)CNc2cccc(F)c2)cc1,0.86,1.2
COC(=O)Cc1cc(=O)oc2cc(OC)ccc12,1.5,-0.02
O=C(O)COc1ccc(-c2nc(-c3ccccc3)c(-c3ccccc3)[nH]2)cc1,1.1,-1.7
COc1ccc(Cl)cc1NC(=O)NCCN1CCNC1=O,0.1,0.71
O=C(NCc1ccccc1)C(c1ccc(F)cc1)N(C(=O)c1csnn1)C1CCCC1 (stereo not drawn),1.1,-0.23
COc1cc(NC(=S)N2CCCC2)cc(OC)c1,0.52,-1.1
COc1ccc(S(=O)(=O)N2CCC(O)(c3cccnc3)CC2)cc1OC,0.24,-1.8
COc1cc(/C=N/NC(N)=S)ccc1OCC(=O)Nc1ccc(C)c(C)c1,0.44,-0.71

# High-throughput results as filed in PubChem BioAssay.

# An excerpt (hit frequency here may not be typical).
